RanGTP-Impb inh – disruptors of Ran-importin-beta complex formation – biochemical, FRET, CFP-Ran, YFP-importin-beta, homogeneous, primary screen | cell-free CFP-Ran/YFP-importin-beta FRET ratio | inhibition, % (concentration not given with the values) | 300,000 tested, 1.1% active;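 active = most replicates above 15%; inconclusive = exactly half above 15%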;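 note: 0% = DMSO wells and 100% = Ran loaded with GDP instead of GTP; wells of about 40 µL received 100 nL stock; the first replicate is given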
Vif A3G – HIV-1 Vif–A3G interaction blockers – biochemical, TR-FRET, GST-Vif 1-94, biotin-A3G peptide, dose response retest, primary screen (AID 1117319); TR-FRET GST-Vif / biotin-A3G peptide binding; higher % means a stronger effect; test concentration not given here; strong numbers were not always called active; inhibition, %, or IC50 in µM where a hit was titrated; 260,000 tested, 0.57% active;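 active = above the screen mean plus three standard deviations and confirmed in dose response; inconclusive = results disagree or hit not tested in dose response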;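 note: Vif residues 1-94 fused to GST binding biotinylated APOBEC3G peptide 110-148; 0% = full assay without inhibitor and 100% = GST in place of GST-Vif; retest series ran down from 100 µM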
UCH37 DUB inh – blocks the human deubiquitinase UCH37 | purified proteasome/UCH37, Ub-AMC cleavage fluorescence | inhibition, % (test concentration not listed) | 330,000 tested, 0.33% active | AID 588478;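 active = mean of two replicates above 20%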;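 note: 0% = compound-free wells with enzyme and 100% = wells lacking proteasome; stock transfer was 100 nL into about 20 µL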
Target sequence (Q9Y5K5 whole entry, looked up): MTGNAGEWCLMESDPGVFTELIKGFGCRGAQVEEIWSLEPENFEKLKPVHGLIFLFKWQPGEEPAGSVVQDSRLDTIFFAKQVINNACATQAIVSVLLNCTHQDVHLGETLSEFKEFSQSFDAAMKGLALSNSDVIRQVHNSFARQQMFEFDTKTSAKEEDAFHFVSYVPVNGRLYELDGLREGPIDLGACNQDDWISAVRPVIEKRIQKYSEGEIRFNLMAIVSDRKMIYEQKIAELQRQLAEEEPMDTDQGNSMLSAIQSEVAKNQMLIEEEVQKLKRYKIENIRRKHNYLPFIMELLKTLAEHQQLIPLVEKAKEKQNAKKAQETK
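Assay system: Proteasome-bound UCH37. Buffer or medium: pH 7.4 Tris-HCl (50 mM) with ovalbumin, ATP-MgCl2, DTT. Incubation: 30 min preincubation with enzyme, 25 min cleavage at room temperature. Measured by: fluorescence, ex 355 nm, em 460 nm. Read-out basis: percent inhibition. Control set: wells without proteasome as full block, compound-free enzyme plus substrate as uninhibited.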
HNF4A DNA FP – change in binding of human HNF4 alpha to DNA; activity change, % at 10 µM; AID 1224865; HNF4a-FITC DNA binding, fluorescence polarization, 1 h; 360,000 tested, 0.3% active; in the data active = activity change above about 30%, passing the limit was not always enough;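 note: controls were the assay level and a saturating level of protein; the project sought stronger binding though the title names inhibitors; some compounds called inactive have numbers as strong as hits; positive values seem to mean higher polarization but the record does not say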
Target sequence (P41235 whole entry, looked up): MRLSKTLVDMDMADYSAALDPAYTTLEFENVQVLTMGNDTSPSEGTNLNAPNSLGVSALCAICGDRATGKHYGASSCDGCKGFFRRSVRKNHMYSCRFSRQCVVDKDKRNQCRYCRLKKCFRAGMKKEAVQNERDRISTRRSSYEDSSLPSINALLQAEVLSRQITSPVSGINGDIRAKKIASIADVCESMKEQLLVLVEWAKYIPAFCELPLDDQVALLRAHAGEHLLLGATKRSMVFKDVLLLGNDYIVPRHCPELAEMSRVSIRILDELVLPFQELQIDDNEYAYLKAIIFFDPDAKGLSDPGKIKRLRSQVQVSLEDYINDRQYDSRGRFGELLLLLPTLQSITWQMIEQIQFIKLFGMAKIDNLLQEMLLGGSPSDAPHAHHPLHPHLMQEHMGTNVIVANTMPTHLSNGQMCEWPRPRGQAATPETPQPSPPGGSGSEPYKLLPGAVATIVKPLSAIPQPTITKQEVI
Ecoli growth – inhibitors of Escherichia coli growth. OD600 absorbance (no concentration beside the values). 330,000 tested, 0.21% active. OD600, 23 h; stronger effect = lower value;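 active = OD600 absorbance below the run mean of sample wells minus 3.6 SD, in any replicate, cut at about 0.56 in these data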;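 note: stock transfer was 300 nL into about 60 µL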
FGF22 binding – shifts melting point of recombinant human FGF22; Q9HCT0; recombinant FGF22 thermal shift, SYPRO orange fluorescence; percent of sucrose octasulfate shift, DMSO zero; calls only at 9.99 µM; 340,000 tested, 1.5% active; AID 651658;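 active = melting point raised past a set limit in the mean and every replicate; inconclusive = no clear call; three in four hits are not shown here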
Target sequence (Q9HCT0 whole entry, looked up): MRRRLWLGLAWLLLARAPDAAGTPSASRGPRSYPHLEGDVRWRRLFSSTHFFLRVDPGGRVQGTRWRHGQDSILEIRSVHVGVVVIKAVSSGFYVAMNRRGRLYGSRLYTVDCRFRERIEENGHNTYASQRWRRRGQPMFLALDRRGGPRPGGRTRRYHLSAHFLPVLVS
AF4-AF9 inh – blocks AF4 peptide binding to human AF9 | P42568 | 350,000 tested, 0.47% active | AID 651704 | AlphaScreen, biotin-AF4 peptide binding to FLAG-AF9 | inhibition, % at 10 µM;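 active = every replicate reaching a set inhibition limit, whatever the replicate mean, cut at about 25% in these data; inconclusive = mean inhibition reaches that limit but some replicates miss it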;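 note: 0% = plate neutral control median and 100% = total signal loss; the record names both 10 and 1 µM as test concentration; the first replicate is given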
* hit, by the source's call; i = inactive; ? = inconclusive; / = not tested or not shown; & = joins results of further samples. These rows are one share of the data, so the mix of outcomes need not match the whole.

SMILES | RanGTP-Impb inh | Vif A3G | UCH37 DUB inh | HNF4A DNA FP | Ecoli growth | FGF22 binding | AF4-AF9 inh
CCN(CC)c1ccc(NC(=O)c2ccc3c(c2)c(C)c(C)n3C)cc1 | -1.6 | 25% | 1.3 | 10.0 | 0.59 | i | 20
Cc1cc(C)n2c(=S)[nH]nc2n1 | 0.9 | -3% | 3.7 | -0.5 | 0.8 | / | /
COc1c(-c2ccc(O)c(O)c2)oc2cc(O)cc(O)c2c1=O | -4.4 | / | 1.8 | -0.7 | 0.67 | i | -4.1
NC(=O)C1(N2CCCCC2)CCN(S(=O)(=O)c2cc(Cl)sc2Cl)CC1 | 2.0 | -6% | 6.4 | 1.6 | 0.63 | i | -4.5
N#Cc1nc(-c2ccccc2F)oc1NCCc1ccccn1 | -1.9 | -1% | -33 | -1.0 | 0.68 | / | /
O=C(CN1CCN(C(=O)c2ccccc2)CC1)NC(=O)NCCC1=CCCCC1 | / | -3% | 8.8 | -0.4 | 0.68 | i | -16
CCOC(=O)N1CCN(C(=O)CN2C(=O)COc3ccc(C(C)(C)C)cc32)CC1 | 1.0 | 15% | -0.1 | 5.9 | 0.68 | i | -50
COCCN1C(=O)N[C@@H](c2ccco2)C(C(C)=O)=C1C | 4.1 | 5% | 0.8 | -6.4 | / | i | -0.1
O=C(NCc1ccco1)C1CCN(S(=O)(=O)N2CCC3(CC2)OCCO3)CC1 | -4.4 | -6% | 2.9 | 4.6 | 0.66 | / | /
O=C(CNC(=O)c1ccc(Cl)cc1Cl)OC1CCCCC1=O (stereo unspecified) | / | / | 0.6 | 0.2 | 0.69 | i | -3.2
Cc1sc(NC(=O)CSc2nc(O)cc(=O)[nH]2)nc1-c1ccccc1 | 0.6 | 8% | -0.5 | 18 | 0.72 | i | -1.8
CCOC(=O)Nc1ccc2c(c1)N(C(=O)CNC)c1ccccc1CC2 | 0.5 | / | 4.4 | 0.0 | 0.71 | i | -0.1
Cc1ccccc1OCC(=O)Nc1ccc(S(=O)(=O)Nc2onc(C)c2C)cc1 | 2.6 | 2% | 1.2 | -1.7 | 0.69 | / | 0.3
CC1CCCN(C(C(=O)NC2CCCCC2)c2cc3c(cc2[N+](=O)[O-])OCO3)C1 (stereo unspecified) | 10 | 7% | 0.3 | -3.9 | 0.68 | i | 9.5
CCc1ccccc1NC(=O)N[C@H](C(=O)O)C(C)CC (stereo partly specified) | 7.6 | 2% | 2.4 | -3.1 | / | / | /
Cc1c(Cl)cnc(NC(=O)CSc2n[nH]c(N)n2)c1Cl | / | 1% | 4.1 | 0.6 | 0.64 | i | -0.6
O=C(CSc1nc(-c2ccccc2)nc2ccccc12)Nc1cccc(C(=O)O)c1 | -4.5 | -16% | 6.4 | -1.2 | 0.68 | i | -0.3
COc1ccc(N2C(=O)C(Cl)=C(Nc3ccc(OC)cc3OC)C2=O)cc1 | 8.7 | / | 7.0 | 1.8 | 0.66 | i | 1.0
COc1ccc(OCC(=O)NC2CCSc3ccccc32)cc1 (stereo unspecified) | / | 5% | -1.5 | 1.7 | 0.63 | i | 0.0
CC(=O)N(CC1CCCO1)c1nnc(-c2ccccn2)s1 (stereo unspecified) | -4.1 | -1% | 3.1 | 2.2 | 0.73 | / | /
C=CCOc1c(CNc2ccc(C(=O)O)cc2)cccc1OCC | -4.1 | 5% | 1.5 | 1.3 | 0.78 | / | /
CC(=O)Nc1ccc(Oc2ncccn2)c(Cl)c1 | 5.7 | -4% | -0.8 | -0.6 | 0.67 | / | /
COc1cc(S(=O)(=O)n2nnc3ccccc32)c(OC)cc1Cl | -1.4 | 1% | -2.0 | 0.5 | 0.73 | / | /
COC(=O)[C@@]12C[C@@H](CC(=O)NCc3cccs3)C(=O)N(Cc3ccco3)C1=CCC(C)(C)C2 | / | / | / | -2.9 | / | i | 1.4
CCOC(=O)C1=C(c2ccccc2)NC(=O)NC1c1cc(OC)c(OC)c(OC)c1 (stereo unspecified) | / | / | 4.7 | -3.3 | 0.72 | i | -0.2
CCn1nccc1C(=O)Nc1nc2ccccc2n1CCN1CCCCC1 | 1.5 | 3% | 4.8 | -0.1 | 0.68 | / | /
Cc1cc(-c2csc(NCc3ccccc3)n2)c(C)n1C | / | -5% | 2.8 | 9.4 | 0.68 | / | /
COCC(=O)N(C)C[C@@H]1Oc2ncc(Br)cc2C(=O)N([C@@H](C)CO)C[C@H]1C | / | -2% | / | 2.0 | / | i | 4.3&-4.2&-1.1
Cc1onc(-c2c(F)cccc2Cl)c1C(=O)Nc1cccc(S(=O)(=O)NCc2ccco2)c1 | -1.5 | -10% | 0.5 | 2.8 | 0.61 | i | 3.3
Cc1cc(C)c(NC(=O)Cn2ncc3ccccc32)c(C)c1 | 0.3 | -2% | 0.4 | -7.7 | 0.7 | i | -1.0
O=C1NCCN1Cc1ccccc1F | -0.7 | -12% | 3.3 | -2.0 | 0.75 | / | /
CC1(c2nnnn2Cc2ccccc2)CCC(=O)N1CCc1ccc(O)cc1 (stereo unspecified) | / | / | / | 4.0 | / | i | -0.4
CCCC(=O)c1c(NCCO)cc(C)oc1=O | -0.6 | 16% | 1.3 | 1.5 | 0.72 | i | -8.7
CCCc1nn(C)c(C(=O)Nc2cccc3ccccc23)c1Cl | -3.2 | -1% | 0.8 | 0.2 | 0.72 | / | /
Cc1ccc(C)c(OC(=O)c2ccncc2)c1 | -1.3 | / | 3.3 | 0.8 | 0.67 | / | /
Cc1ccc(OCc2nc(C#N)c(NCCCn3ccnc3)o2)cc1 | -1.9 | -8% | -0.2 | -0.1 | 0.67 | / | /
C/C(NCc1ccccc1)=C(\C#N)C(=O)NCc1ccccc1 | 2.9 | -6% | 0.6 | -1.8 | / | / | /
CCOC(=O)C1=C(c2ccccc2)NC(=O)NC1c1ccc(OC)c(OC)c1 (stereo unspecified) | -0.5 | -6% | 6.2 | 0.1 | 0.69 | i | 2.0
O=C(CSCc1ccc(Cl)cc1Cl)Nc1c[nH]c(=O)[nH]c1=O | -2.7 | 1% | 4.6 | 5.6 | 0.67 | i | -5.7
CC(C)CC(=O)Nc1ccc2c(c1)oc1ccccc12 | -2.4 | -2% | 1.0 | 2.0 | 0.72 | / | /
CC1=C(C(=O)N(C)C)CC(CC(=O)NC2CC2)C(=O)N1CCC1=CCCCC1 (stereo unspecified) | / | 0% | / | 1.6 | / | i | -2.2
CCOC1OC2C(CO)OC(n3cnc4c(N)ncnc43)C2O1 (stereo unspecified) | -3.0 | 26% | 5.8 | 0.5 | 0.72 | i | 5.9
Cc1c(C)c(C)c(S(=O)(=O)n2[nH]c(=O)c(CCO)c2C)c(C)c1C | -3.7 | -7% | 4.2 | 2.8 | 0.68 | i | -2.5
O=C(N/N=C/c1cccc(Oc2ccccc2)c1)c1cccc(Br)c1 | ? | 0% | / | -3.3 | / | i | 1.5
COc1ccc(CNC(=O)C2CCCN2S(=O)(=O)c2ccc(S(=O)(=O)N(C)C)cc2)cc1 (stereo unspecified) | ? | -6% | 2.7 | 0.8 | 0.7 | / | /

An excerpt of these results, with each value named:
Cc1ccc(C)c(OC(=O)c2ccncc2)c1
  RanGTP-Impb inh: -1.3
  Vif A3G: /
  UCH37 DUB inh: 3.3
  HNF4A DNA FP: 0.8
  Ecoli growth: 0.67
  FGF22 binding: /
  AF4-AF9 inh: /

Cc1ccc(OCc2nc(C#N)c(NCCCn3ccnc3)o2)cc1
  RanGTP-Impb inh: -1.9
  Vif A3G: -8%
  UCH37 DUB inh: -0.2
  HNF4A DNA FP: -0.1
  Ecoli growth: 0.67
  FGF22 binding: /
  AF4-AF9 inh: /

C/C(NCc1ccccc1)=C(\C#N)C(=O)NCc1ccccc1
  RanGTP-Impb inh: 2.9
  Vif A3G: -6%
  UCH37 DUB inh: 0.6
  HNF4A DNA FP: -1.8
  Ecoli growth: /
  FGF22 binding: /
  AF4-AF9 inh: /

CCOC(=O)C1=C(c2ccccc2)NC(=O)NC1c1ccc(OC)c(OC)c1 (stereo unspecified)
  RanGTP-Impb inh: -0.5
  Vif A3G: -6%
  UCH37 DUB inh: 6.2
  HNF4A DNA FP: 0.1
  Ecoli growth: 0.69
  FGF22 binding: i
  AF4-AF9 inh: 2.0

(further entries)
SMILES | RanGTP-Impb inh | Vif A3G | UCH37 DUB inh | HNF4A DNA FP | Ecoli growth | FGF22 binding | AF4-AF9 inh
Nc1cc2c(cc1Br)-c1ccc(F)cc1C2=O | / | -3% | 4.9 | -7.4 | 0.65 | i | 4.5
COC(=O)C/C=N/N=C1/NC(=O)/C(=C/C(=O)O)S1 | 0.8 | / | / | -4.8 | / | i | 0.1
CCNc1ccc(C(=O)OCC(=O)NC(C)c2ccccc2)cc1[N+](=O)[O-] (stereo unspecified) | -3.1 | -10% | 1.2 | -4.7 | 0.7 | i | -11
O=C(O)C/C(=C\c1cc(Cl)c2c(c1)OCO2)c1nc2ccccc2s1 | 3.5 | / | / | -25 | / | i | 1.8
Cc1ccccc1C(=O)Nc1cccc(NC(=O)c2ccc(F)cc2)c1 | -0.8 | -14% | 0.1 | 2.7 | 0.62 | i | -0.8
CC(CC(=O)N1CCN(c2ccccc2)CC1)c1ccccc1 (stereo unspecified) | -2.5 | / | 2.0 | 0.4 | 0.69 | / | /
Cn1cccc1C(=O)NC(=O)COC(=O)c1cc(S(=O)(=O)N2CCCCC2)ccc1Cl | -7.4 | -18% | 0.8 | 1.0 | 0.68 | i | 6.0
CC(C)(C)c1ccc(OCC(O)CNC(=O)c2ccccc2C(=O)O)cc1 (stereo unspecified) | 0.4 | 2% | 0.8 | -0.5 | 0.71 | / | /
CC(=O)N1CN(C2CC(C)(C)NC(C)(C)C2)Cc2c1sc1c2CCCC1 | -1.4 | 0% | 1.3 | -5.0 | 0.7 | i | 4.8
COC(=O)c1ccc2c(c1)C(C)(C)C(/C=C/c1ccc(O)cc1)=[N+]2C | 1.6 | -3%&8% | i | 41* | 0.63 | / | /
CC1=C(C(=O)N2CCCCCC2)CC(CC(=O)NCCc2ccccn2)C(=O)N1Cc1ccccc1 (stereo unspecified) | / | / | / | -1.6 | / | i | -6.0
CCOc1ccc(OCCCCOc2ccccc2C(C)=O)cc1 | 0.0 | / | 3.2 | -2.6 | 0.69 | / | /
O=C(Cc1cc(C(F)(F)F)cc(C(F)(F)F)c1)Nc1c(-c2ccccc2)[nH][nH]c1=O | / | / | / | -2.4 | / | i | -3.4
Nc1nc2c(ncn2[C@@H]2O[C@H](CNCc3ccc(F)c(N4CCOCC4)c3)[C@@H](O)[C@H]2O)c(=O)[nH]1 | / | / | / | 4.3 | / | i | 3.0
CCC(=O)c1cn(CC(=O)Nc2ccc(F)cc2)c2ccccc12 | / | 2% | / | 1.2 | / | i | 0.0
O=C(Nc1ccccc1Cl)c1ccc(Cl)cc1Cl | 3.7 | -1% | 1.2 | -7.7 | 0.72 | i | -0.2
COc1ccc(CN2C(=O)[C@@H]3Cc4c([nH]c5ccccc45)C(C)(C)N3C2=O)cc1 | -0.7 | / | 2.3 | -1.2 | 0.8 | i | -0.2
O=C(CCCCn1c(=O)[nH]c2ccccc2c1=O)N1CCN(c2ncccn2)CC1 | -0.7 | 5% | 1.9 | 1.0 | 0.75 | i | -3.5
Cc1ccc2nc(C(F)OC(F)(F)F)[nH]c2c1 (stereo unspecified) | 1.9 | 24% | 1.8 | -1.1 | 0.68 | / | /
O=C(C1=C(O)C(=O)N(CCN2CCOCC2)C1c1cccnc1)c1cc2ccccc2o1 (stereo unspecified) | / | 16% | 11 | 3.9 | 0.74 | / | /
CCC(=O)N1CCc2cc(Br)cc(S(=O)(=O)NCCN3CCCCC3C)c21 (stereo unspecified) | 6.1 | -8% | 0.8 | 3.5 | 0.69 | / | /
O=C(NCc1cccnc1)c1cccc(S(=O)(=O)N2CCOCC2)c1 | 4.7 | 2% | 2.1 | -3.1 | 0.69 | / | /
CN(C)CCNC(=S)Nc1ccccc1Cl | 3.1 | / | 0.7 | 4.4 | 0.69 | i | -1.2
